Compound activity (PubChem)
Mtb hypoxia inh – Mtb hypoxia fluorescent reporter inhibition; AID 1159583; fluorescence inhibition, % (test concentration not listed); M. tuberculosis hypoxia-regulated fluorescent reporter, fluorescence; 300,000 compounds, 0.1% hits;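 active means 35 to 45% if threefold the growth effect, above 45% if 1.5-fold the growth effect; inactive means the rest, general growth blockers included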;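 further: wells of about 50 µL received 100 nL stock; 0% = vehicle wells and 100% = reference inhibitor wells; whole bacteria with a GFP reporter of the hypoxia response; strong numbers were not always called active; many hits fall short of the cut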
BJeLR viability – kills HRASV12-expressing BJeLR cells | BJeLR (HRASV12) viability, CellTiter-Glo ATP luminescence, 48 h; reference of the scale not given here | inhibition, % (test concentration not listed) | 300,000 compounds, 0.17% hits;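 active means replicate mean above 50%; inconclusive means above 50% but judged a plate artefact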;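 further: 50 nL library stock added to about 25 µL; numbers are from one replicate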
RN4220 kill – kills Staphylococcus aureus RN4220 | 330,000 compounds, 0.33% hits | S. aureus RN4220 growth, OD600, 16 h | inhibition, % (test concentration not listed);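 active means z-score of -3 or lower and OD600 up to 0.18 on both plates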;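 further: plate controls were untreated cells for no effect and reference antibiotic for full effect; stock transfer was 100 nL into about 80 µL; one replicate is shown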
PrP UTR inh – suppresses PrP 5' UTR mRNA reporter expression | cell-based PrP 5' UTR mRNA reporter, plate reader | inhibition, % (test concentration not listed) | 340,000 compounds, 0.35% hits;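 active means every replicate at 50% or more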;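 further: 0 = median of the neutral control wells; tested in H4 reporter cells; numbers are from one replicate; inactives centre near -14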
Autofluor counter – compound fluorescence in toxin protease inhibitor counterscreen; compound autofluorescence counterscreen, microsphere flow cytometry; hits give high values; fluorescence intensity (test concentration not listed); 360,000 compounds, 3.1% hits;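 active means at least 3 SD above the mean of all compounds, about 16000 in these data; inconclusive means too few beads counted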;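 further: 100 nL of 1 mM stock went into each well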
ugtP null kill – kills S. aureus RN4220 lacking UgtP | S. aureus RN4220 ugtP deletion, OD600 growth, 16 h; some inactives read as strong as hits | growth inhibition, % (no concentration beside the values) | 330,000 compounds, 0.54% hits | AID 1259309;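 active means z-score under -3 and OD600 up to 0.15 on both plates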;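 further: plate controls were untreated wells for no effect and antibiotic for full effect; wells of about 80 µL received 100 nL stock; the first replicate is given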
Mtb hypoxia inh growth – recorded beside Mtb hypoxia inh, whose call it bears; growth inhibition, %; measured here: M. tuberculosis growth (absorbance);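 0% = vehicle and 100% = reference antibiotic; read after six days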
* = called active by the depositor; ? = inconclusive; . = not tested or not shown; & = joins results of further samples; ! = not active in a repeat. Compounds were not picked by outcome. About 4% of those tested had a hit in this group.

SMILES | Mtb hypoxia inh | Mtb hypoxia inh growth | BJeLR viability | RN4220 kill | PrP UTR inh | Autofluor counter | ugtP null kill
COc1cc(/C=C2\C(=N)N3N=CSC3=NC2=O)cc(Br)c1OC(=O)c1ccco1 | 4.9 | 5.5 | 0.3 | 9.0 | -7.7 | 2719 | 0.0
COc1cc(C=NNC(=S)Nc2cccc(S(=O)(=O)N(C)C)c2)ccc1O | 10.2 | 3.0 | . | 11.2 | . | . | 10.7
COc1ccccc1N1CCN(C(=O)C2CCN(S(=O)(=O)c3ccc(C)cc3)CC2)CC1 | -9.6 | -5.7 | 1.3 | -0.2 | -9.1 | 3626 | 11.0
CCOC(=O)CNC(=O)c1nn(-c2ccc(OCC)cc2)c(=O)c2ccccc12 | . | . | . | -0.3 | -26.7 | 2233 | -0.2
Cc1ccsc1/C=N/n1c(-c2ccccn2)n[nH]c1=S | . | . | -2.9 | . | -22.0 | 1996 | .
COc1ccc2sc(NC(=O)c3ccco3)nc2c1 | 16.3 | 11.5 | 5.8 | 15.5 | -2.5 | 7713 | -9.5
COc1ccccc1N1CCN(C(=O)c2onc(C)c2Cl)CC1 | 5.9 | 10.9 | -5.4 | 1.9 | -12.2 | 5857 | -0.2
CCOc1ccc(NC(=O)CN(C)C(=O)c2cn3ccccc3n2)cc1OCC | 9.6 | 3.3 | 1.9 | 2.8 | -15.8 | ? | 2.2
Cc1cccc(S(=O)(=O)NCCNS(=O)(=O)c2cccc(C)c2)c1 | 8.9 | -0.8 | -4.1 | 3.4 | -15.3 | 3681 | 4.0
COc1ccc(CNC(=O)c2ccc3ccccc3n2)cc1OC | 11.1 | 6.2 | -5.4 | 2.3 | -6.8 | 3563 | 4.4
O=c1ccc2c(O)c3ccoc3cc2o1 | . | . | . | 2.0 | -12.6 | 6045 | 6.3
COc1ccc(OCC2CNC(=O)O2)cc1 (stereo not drawn) | . | . | 10.0 | . | -16.8 | 2434 | .
CCc1sc(NC(=O)c2cc3ccccc3oc2=O)nc1-c1cccs1 | 4.0 | 3.8 | -4.9 | 14.7 | -19.8 | 7391 | 4.2
COc1ccccc1/C=C/CN1CCN(Cc2ccc(C)o2)C(CCO)C1 (stereo not drawn) | 7.8 | -1.9 | -6.3 | 4.0 | -24.2 | 3186 | 4.4
COC(=O)C(NC(=O)c1c(C)nn(C)c1Cl)c1ccccc1 (stereo not drawn) | . | . | 0.4 | . | 3.8 | 4324 | .
CCOc1cc(/C=C/c2cccc[n+]2C)ccc1O | 20.4 | 2.7 | -14.1 | 2.4 | -4.2 | . | 4.1
COc1ccccc1CCc1nnc(CCC(=O)NCCCOc2cccnc2)o1 | -2.4 | -14.4 | -1.1 | 2.2 | -26.6 | 2024 | 6.4
COc1ccccc1-c1c(C)nn2c(N3CCOCC3)cc(C)nc12 | 5.7 | 0.8 | -5.4 | 3.0 | -40.2 | 3875 | 7.7
CCOc1ccc(C2CC=C(C(=O)O)C(c3ccc(Cl)cc3)N2S(=O)(=O)c2ccc(C)cc2)cc1 (stereo not drawn) | 8.2 | 6.7 | . | 17.7 | . | . | -12.5
C=C(C)C(=O)N1CC2(CC(c3cccc(NC(=O)CC)c3)=NO2)CC1C(N)=O (stereo not drawn) | 16.3 | 3.1 | . | 5.6 | . | . | -0.5
COCCn1c(SCc2cccnc2)nnc1-c1ccco1 | . | . | -5.9 | -3.8 | -12.9 | 4142 | 1.0
O=C(Nc1cc(C(F)(F)F)ccc1N1CCOCC1)c1cccc(F)c1 | 15.6 | 3.3 | -1.1 | -9.3 | 1.9 | 2713 | -3.1
CCCOC(=O)C1C2C=C[C@]3(CN(C(C)c4ccc(OC)cc4)C(=O)C13)O2 (stereo partly drawn) | 8.8 | 7.7 | . | 7.0 | . | . | 0.0
CC1(C)CC(=O)C=C(NCCN2CCN(C(=S)Nc3ccccc3)CC2)C1 | -4.2 | 2.1 | 8.0 | 0.9 | -22.3 | 3539 | 7.6
CCCCN(CC)CCCNC(=S)Nc1ccc2nc(N3CCN(CC)CC3)cc(C)c2c1 | -1.4 | -0.3 | 17.0 | 2.5 | -17.4 | 5019 | 7.9
The results go on:
SMILES | Mtb hypoxia inh | Mtb hypoxia inh growth | BJeLR viability | RN4220 kill | PrP UTR inh | Autofluor counter | ugtP null kill
Nc1c(C(=O)Nc2ccc(Cl)cc2)sc2nc(N3CCOCC3)c3c(c12)CCCC3 | 7.7 | -2.6 | 16.2 | 0.3 | 7.2 | 4091 | -9.0
COC(=O)C1=C(C)N(CCCC(=O)O)C(=O)NC1c1ccc(Cl)cc1 (stereo not drawn) | -1.9 | -10.8 | 1.6 | 7.9 | -15.8 | 4058 | -2.5
Cc1cc(C)cc(N2CC(c3nc4ccccc4n3C)CC2=O)c1 (stereo not drawn) | 3.0 | 8.0 | -5.5 | -6.8 | -10.9 | 5739 | -15.5
O=C(CN1CCOCC1)NN=C/C(Br)=C\c1ccccc1 | -0.5 | 13.1 | . | 3.8 | . | . | 1.7
CC(=O)N(CCC(c1ccco1)C(C)C)Cc1ccc(Cl)cc1 (stereo not drawn) | -0.6 | 11.9 | -1.5 | 0.2 | . | . | -4.8
Cc1c(C(=O)N(Cc2ccncc2)CC2CCCO2)oc2c(F)cccc12 (stereo not drawn) | 10.0 | 6.4 | -3.6 | 3.5 | -11.7 | 6051 | 5.4
Cc1ccc(/C=C/C(=O)NN2CCN(C)CC2)cc1 | 4.7 | 0.0 | -3.8 | 5.5 | -20.6 | 5032 | 0.2
COc1ccc(-c2cccc(-c3cc(=O)oc4cc(OC)c(OC)c(OC)c34)c2)cc1 | 4.0 | 6.1 | . | 1.9 | -30.8 | 2929 | 80.1
Cc1ccc(S(=O)(=O)N2CCN(CC(=O)NC3CCCc4ccccc43)CC2)cc1C (stereo not drawn) | 0.9&4.3 | 1.5&10.8 | -0.1 | -3.3&4.4 | -13.9&-27.6 | 21955*! | -6.9&-13.9
COc1ccccc1OCCNC(=O)c1cccc(S(=O)(=O)N2CC(C)OC(C)C2)c1 (stereo not drawn) | -1.1 | -5.1 | -4.2 | -3.4 | -13.2 | 6298 | -17.2
COc1ccc(-c2noc(-c3ccc(Cl)cc3[N+](=O)[O-])n2)cc1OC | -1.0 | 1.4 | -20.3 | 2.5 | -62.3 | 2545 | -0.4
CCOc1cc(N2CCOCC2)c(OCC)cc1NC(C)C(=O)N1CCC(C)CC1 (stereo not drawn) | 5.2 | 8.3 | -0.3 | -2.5 | -21.7 | 1876 | -3.0
CC(=O)Nc1ccc2ccccc2c1 | 11.7 | 5.5 | -1.3 | 5.8 | -13.9 | 4183 | 9.3
COCCNc1nnc(SCC(=O)N2CCN(S(=O)(=O)c3ccccc3)CC2)s1 | 10.1 | 12.5 | 15.2 | -0.5 | -17.7 | 4663 | -5.6
COc1ccc(NC(=O)CC2CCCCC2)cc1OC | 13.3 | 8.4 | -4.4 | -0.3 | -39.2 | 6187 | 7.4
Cc1ccc(/C=C(\NC(=O)c2ccccc2)C(=O)NCCc2ccccn2)o1 | . | . | 8.4 | . | -18.6 | 2584 | .
O=C1c2ccccc2NC(c2ccc(Br)s2)N1O (stereo not drawn) | 2.2 | -6.0 | 3.1 | 11.3 | . | . | -2.5
Cc1ccccc1N/C(SCc1ccc(Cl)cc1)=C(/C#N)C(N)=O | 5.9 | 8.8 | -3.4 | 2.8 | 4.2 | 9989 | 84.4*
NNC(=O)CNC(c1ccccc1)c1cc(Cl)ccc1NC(=O)c1ccccc1 (stereo not drawn) | -1.1 | 3.5 | -11.2 | 0.6 | -15.3 | 4086 | 4.0
Cc1ccc(S(=O)(=O)NCCSc2ccccc2)cc1[N+](=O)[O-] | 3.9 | 6.2 | -12.9 | 2.0 | -22.1 | 2173 | -7.1
CCOc1ccc2c(c1)c(=O)c(S(=O)(=O)c1ccc(CC)cc1)cn2C | 7.2 | 7.6 | 4.5 | 0.1 | -9.0 | 4802 | 4.9
CCC(=O)Nc1sc(Cc2ccc3c(c2)OCO3)c(C)c1C(N)=O | 7.9 | 1.1 | -8.3 | 3.0 | -8.3 | ? | 7.5
COc1ccccc1-c1ccc(SCc2cccc(C)c2)nn1 | 4.6 | 3.4 | 6.9 | 24.9 | -22.1 | 4832 | 16.5
Cc1nc(CSc2n[nH]c(=O)n2-c2ccccc2)cs1 | 0.3 | 14.0 | -3.5 | 2.0 | -6.6 | 4729 | 7.4
CC1CCCC(C)N1C(=C(Cl)Cl)C(=C1SCCS1)[N+](=O)[O-] (stereo not drawn) | 9.3 | -7.4 | 11.3 | 10.4 | -78.3 | 4371 | 85.6
Further structures
SMILES | Mtb hypoxia inh | Mtb hypoxia inh growth | BJeLR viability | RN4220 kill | PrP UTR inh | Autofluor counter | ugtP null kill
COc1cc(=O)n(C)c2cc(N(C)C)ccc12 | 7.5 | 5.9 | 3.4 | 2.9 | 1.7 | 3234 | 4.7
CCN1CCCC1CNS(=O)(=O)c1cccc(C(F)(F)F)c1 (stereo not drawn) | 6.4 | 11.6 | 4.4 | 0.6 | -17.7 | 4622 | 7.2
CC1Oc2ccccc2C=C1/C=N/NC(=O)c1ccncc1 (stereo not drawn) | . | . | 14.1 | . | -4.0 | 5438 | .
Cc1cc(O)c(CN(C)C)c2c1C(=O)/C(=C/c1ccco1)O2 | -25.5 | 5.1 | -1.0 | 0.1 | 0.4 | 3524 | -3.9
Cc1cc(O)c(NC(=O)c2ccco2)cc1C | 0.1 | 7.2 | -2.1 | 4.0 | -65.7 | 4446 | -8.2
O=C(/C=C/c1ccc(F)cc1)NC(=S)N1CCOCC1 | . | . | -8.9 | . | -15.4 | 2550 | .
O=C(CSc1nc2ccccc2s1)NN=Cc1ccc(C(=O)O)cc1 | 13.1 | 3.3 | . | 8.1 | . | . | 8.4
COc1cc2c(cc1OC)C1Cc3ccc(OC)c(OC)c3C[N+]1([O-])CC2 (stereo not drawn) | 12.1 | -4.8 | -4.6 | 8.1 | -7.1 | 3544 | -0.5
O=C1N[C@@H](Cc2ccccc2)C(=O)N2[C@@H]3N(S(=O)(=O)c4ccccc4)c4ccccc4[C@]3(Br)C[C@@H]12 | . | . | -0.7 | . | -8.3 | 3389 | .
CC1(C2CC2)NC(=O)N(CC(=O)N2CCN(c3ccc(F)cc3)CC2)C1=O (stereo not drawn) | -0.1 | 8.3 | . | -0.5 | -1.6 | 6332 | -1.1
COc1ccc2nc(C)cc(NN=Cc3ccccc3)c2c1 | . | . | . | 55.8 | . | . | 58.8
Cc1ccc(S(=O)(=O)N2CCOCC2)cc1NC(=O)COC(=O)c1ccccc1OCc1c(C)noc1C | . | . | -7.3 | . | -5.0 | 2359 | .
CCOC(=O)/C(C#N)=C/c1cc2ccc(C)cc2nc1Cl | 5.5 | 6.1 | 5.1 | 2.5 | -14.9 | 2446 | 20.4
CCc1ccccc1NC(=O)c1ccc(-c2csc(C)n2)cc1 | 3.5 | 2.5 | 4.2 | 5.2 | -3.1 | 3645 | 5.3
C[C@@H](NC(=O)c1nc[nH]c1C(=O)N[C@@H](Cc1ccccc1)C(=O)OC(C)(C)C)c1ccccc1 | . | . | -0.8 | . | -10.6 | 4828 | .
CCCOc1ccc(-c2c(C(=O)NN=C(C)COc3ccccc3)nnn2-c2nonc2N)cc1 | 6.2 | 15.5 | . | 1.7 | . | . | 4.2
O=S(=O)(c1ccccc1)N(CC(O)COc1ccccc1)c1ccccc1 (stereo not drawn) | 9.7 | 5.2 | 11.4 | 11.0 | -10.7 | 4090 | -1.3
O=C(CCc1ccc(CCC(=O)c2cccs2)s1)c1cccs1 | 0.6 | 4.2 | 2.5 | 4.4 | -22.3 | 3193 | 4.1
C=CCN(C(=O)c1csnn1)C(C(=O)NC1CCCCC1)c1ccccc1F (stereo not drawn) | . | . | 0.6 | . | -17.6 | 5374 | .

Sorted by count of non-hydrogen atoms (descending): 4 of the compounds above.
SMILES | Mtb hypoxia inh | Mtb hypoxia inh growth | BJeLR viability | RN4220 kill | PrP UTR inh | Autofluor counter | ugtP null kill
C[C@@H](NC(=O)c1nc[nH]c1C(=O)N[C@@H](Cc1ccccc1)C(=O)OC(C)(C)C)c1ccccc1 | . | . | -0.8 | . | -10.6 | 4828 | .
O=C(CSc1nc2ccccc2s1)NN=Cc1ccc(C(=O)O)cc1 | 13.1 | 3.3 | . | 8.1 | . | . | 8.4
CCc1ccccc1NC(=O)c1ccc(-c2csc(C)n2)cc1 | 3.5 | 2.5 | 4.2 | 5.2 | -3.1 | 3645 | 5.3
COc1ccc2nc(C)cc(NN=Cc3ccccc3)c2c1 | . | . | . | 55.8 | . | . | 58.8
